# PINK1 expr mod: modulators of PINK1 expression. PINK1 immunofluorescence, high-content cytometry, 24 h. Potency, µM (doses to about 76.6 µM), for inactives: at the highest dose activation (PINK1 increase), usual class: activators. hit rate 0.2% among 410,000. AID 624263; active = well fitted activation curve with a large enough effect; inconclusive = small, poorly fitted or top-dose-only effect; inactive = flat fitted curve, though single readings scatter; cell line not stated here;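 note: % of control where 0% means no effect; nearly all actives have a fitted effect of over 65% in size; a mitochondrial uncoupler was the plate control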
#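 Stable cell line, 250 cells/well, 12 h attachment; compounds pinned at 5 concentrations, 24 h; CCCP control. Fixed with nuclear dye, primary antibodies 12 h at 10 degrees C, secondary plus cell stain; laser-scanning cytometer read.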
# * hit, by the source's call; ? = inconclusive. Potency is the fitted concentration of half-maximal effect.
PINK1 expr mod	SMILES
1.9%	COc1ccc(C)cc1NC(=O)C1CCCN(S(=O)(=O)c2ccc3c(c2)oc(=O)n3C)C1 (stereo unspecified)
0.4%	CCOC(=O)c1c(-c2ccc(OC)cc2)oc2ccc(OCc3ccc(F)cc3F)cc12
1.0%	CC1CCCN(c2ncnc3c2nnn3C)C1 (stereo unspecified)
3.9%	CCC(C)NC(=O)c1sc2ncccc2c1-n1c(C)ccc1C (stereo unspecified)
-0.5%	COc1ccc2c(c1)CCc1cnc(-n3ncc(C(=O)NCC(C)(C)CN(C)C)c3C)nc1-2
-0.1%	Cc1ccc2c(c1)c(N1CCCC1=O)c(C(=O)Nc1ccc(F)cc1F)n2C
0.4%	CCOc1ccccc1NC(=O)C1CCN(S(=O)(=O)c2c(C)noc2/C=C/c2ccco2)CC1
5.3%	Cc1cccc(N2CCN(C(=O)c3cnc(N4CCCC4)nc3C)CC2)c1C
0.2%	O=S(=O)(c1ccc(F)cc1)N1CCC(n2c(C(F)(F)F)nc3cccnc32)CC1
4.4%	CCOC(=O)c1ccc(NC(=O)c2cc3sccc3n2Cc2ccc(Cl)cc2)cc1
1.0%	Cc1ccc(NC(=O)COCc2cc(-c3cccs3)on2)cc1Cl
0.4%	O=C(Nc1ccc(OC(F)(F)F)cc1)c1cc(-c2ccc(Cl)cc2)on1
4.8%	Cc1ccc(Cn2ccn(Cc3cccc(C(F)(F)F)c3)c(=O)c2=O)cc1
-1.2%	Cc1cc(C)cc(Nc2cc(C(=O)NCCCN(C)C3CCCCC3)c3ccccc3n2)c1
2.4%	CCOC(=O)c1ccc2c(c1)N(Cc1cccc(OC)c1)C(=O)c1ccccc1S2(=O)=O
2.2%	CCCCOc1ccc(C2c3c(oc4ccccc4c3=O)C(=O)N2c2nc(C)c(C(=O)OCC)s2)cc1OC (stereo unspecified)
-1.0%	CN1CCN(C(CNC(=O)C(=O)Nc2ccc(Cl)cc2)c2cccnc2)CC1 (stereo unspecified)
0.7%	Cc1ccc(-c2cc(C(=O)NCc3ccccc3)c3c(-c4ccc(C)cc4)[nH]nc3n2)cc1
3.1%	CCc1ccc(NC(=O)CSc2ccc(-c3cccs3)nn2)cc1
4.3%	COc1ccccc1OCCCn1c(C2CC(=O)N(c3ccccc3Cl)C2)nc2ccccc21 (stereo unspecified)

# More records:
PINK1 expr mod	SMILES
6.5%	COc1ccc(N2CCN(C(=O)c3cc4c(=O)oc5ccc(C)cc5c4s3)CC2)cc1
-0.1%	O=C(Oc1ccc(F)cc1)c1nc(SCc2ccc(F)cc2)ncc1Cl
1.4%	CCOC(=O)N1CCN(C(=O)Cn2ncc3c4ccccc4n(Cc4ccc(F)cc4)c3c2=O)CC1
2.1%	Cc1ccccc1-c1ccc(CN2CCc3nnc(CNC(=O)c4ccccn4)n3CC2)cc1
1.4%	Cc1ccc(C(=O)COC(=O)c2cc(-c3cccs3)nc3ccccc23)cc1
2.2%	COc1ccccc1-c1ncnn1-c1sc2c(c1C#N)CCCCC2
0.5%	CC(=O)c1cccc(NC(=O)c2sc(-n3nc(C)c(Cc4ccc5c(c4)OCO5)c3C)nc2C)c1
-0.7%	CC(C)CCSc1nc2c(c(=O)n(C)c(=O)n2C)n1Cc1ccccc1Cl
?	COc1ccc(Cn2ccnc2SCC(=O)NCc2ccccc2)cc1
1.3%	Cc1ccc(CN2CCc3nnc(C(C)NC(=O)c4cc(F)ccc4F)n3CC2)o1 (stereo unspecified)
3.8%	Cc1ccc(CNC(=O)c2ccc3c(c2)c(C)c(C)n3Cc2ccc(Cl)cc2)o1
1.2%	O=C(COc1ccc(Cl)cc1)NCC(c1cccs1)S(=O)(=O)c1ccc(F)cc1 (stereo unspecified)
-0.6%	Cc1ccc(-c2nc3ccccc3o2)cc1NC(=O)C(C)Oc1ccccc1 (stereo unspecified)
0.4%	Cc1ccc(OCC(=O)Nc2ccc(S(=O)(=O)Nc3cc(C)on3)cc2)c(Br)c1
5.0%	CCOc1cc(C2c3c(oc4cc(C)cc(C)c4c3=O)C(=O)N2CCO)ccc1O (stereo unspecified)
-0.1%	CCOc1ccc(NC(=O)C(NS(=O)(=O)c2ccc3c(c2)CCN3C(C)=O)C(C)C)cc1 (stereo unspecified)
-0.9%	CCOC(=O)c1c(C)oc2nc(C)nc(N3CCN(c4ccccc4F)CC3)c12
0.1%	Cc1cccc(CNC(=O)c2c3n(c(C)cc2=O)-c2ccccc2SC(c2sccc2C)C3)n1 (stereo unspecified)
0.9%	CCOc1ccc(CNC(=O)C2CCN(c3nnc(-n4c(C)ccc4C)s3)CC2)cc1
0.7%	Cc1ccc2c(CC(=O)Nc3ccc(S(=O)(=O)Nc4nc(C)cc(C)n4)cc3)coc2c1

# (more compounds)
PINK1 expr mod	SMILES
1.9%	CCOC(=O)C1CCN(S(=O)(=O)c2cc3c4c(c2)CC(=O)N4CCC3)CC1
-0.5%	COc1cc(-c2ccno2)ccc1S(=O)(=O)N1CCN(c2cc(C)ccc2C)CC1
2.5%	CCc1ccc(CNC(=O)c2cnc(N3CCCCC3)c3ccccc23)cc1
0.1%	O=S(=O)(c1ccc2ccccc2c1)n1nc(-c2ccco2)nc1NCc1cccc(Cl)c1
2.1%	Cc1cccc(NC(=O)CSc2cn(CC(=O)N3CCOCC3)c3ccccc23)c1
3.1%	CCc1ccc(NC(=O)CSc2nc3c([nH]c4ccccc43)c(=O)n2-c2ccc(C)cc2)cc1
-0.7%	CCc1ccc2occ(CC(=O)Nc3sc4c(c3C(=O)OC)CCC4)c2c1
2.6%	Cc1ccc(NC(=O)CSc2cc(=O)n(C)c3ccc(Cl)cc23)c(Br)c1
-1.8%	Cc1ccccc1NC(=O)CSc1nccn1C
1.4%	O=C(Nc1ccc(-c2cn3cccnc3n2)cc1)c1ccccc1F
2.6%	CCOc1ccc(C2NC(=O)c3c(COC)cc(C)nc3N2Cc2ccccc2)cc1OC (stereo unspecified)
?	CCc1ccc(NC(=O)Cn2c(=O)ccc3cc(S(=O)(=O)N4CCCC4)ccc32)cc1
6.4%	Cc1ccc(CNC(=O)C2CCCN(Cc3nc(-c4cccc(C)c4)oc3C)C2)cc1 (stereo unspecified)
6.5%	COc1cccc(Cc2nc3ccccc3nc2SCC(=O)NCc2ccc(C)cc2)c1
-1.0%	COCCCNC(=O)C1CCC(Cn2c(=O)c3sccc3n(Cc3ccc(F)cc3)c2=O)CC1 (stereo unspecified)
-4.2%	O=c1c2[nH]c3ccccc3c2nc(SCc2ccccc2F)n1-c1ccc(F)cc1
-0.1%	CCc1ccc(-n2c(SCc3ccccc3C)nc3[nH]ncc3c2=O)cc1
5.7%	COc1ccc(-c2c(C)nn3c(N4CCC(C(=O)NCCC(C)C)CC4)cc(C)nc23)cc1OC
3.3%	COc1ccccc1S(=O)(=O)Cc1ccc(C(=O)NCc2ccc(Cl)cc2)o1
0.9%	O=C(C1CCCN(S(=O)(=O)c2cccc3nsnc23)C1)N1CCN(c2ccccc2F)CC1 (stereo unspecified)

# The list continues.
PINK1 expr mod	SMILES
-4.5%	COc1cccc(NCc2nnc3n2CCCCC3)c1
4.6%	Cc1ccc(NC(=O)Cn2c(=O)c(C(F)(F)F)nc3ccccc32)cc1C
-0.4%	Cc1cc2cc(CCNS(=O)(=O)c3ccc(Br)cc3)c(=O)[nH]c2cc1C
1.5%	CCOc1ccc(NC(=O)CN2CCN(CC(=O)Nc3ccc(N(CC)CC)cc3)CC2)cc1
4.8%	CCOc1ccccc1NC(=O)NCc1ccc2c(c1)CCN2C(=O)c1ccccc1
2.6%	CCOc1ccc(NC(=O)CC2C(=O)N(c3ccc(F)cc3)C(=O)N2Cc2ccc(OC)c(OC)c2)cc1 (stereo unspecified)
8.4%	O=C(COc1ccccc1[N+](=O)[O-])Nc1cccc(-c2nc3ccccc3s2)c1
-0.7%	COc1ccccc1C1CN(CCNC(=O)[C@@H]2CSC(=O)N2)Cc2ccccc2O1 (stereo partly specified)
0.4%	Cc1ccc(-c2cn3c(n2)sc2cc(C(=O)NCc4cccs4)ccc23)c(C)c1
-0.1%	O=C(CCN1N=C(c2ccccc2)CCC1=O)NCCc1ccc(Cl)cc1
0.5%	COc1ccc(-c2c(C)nn3c(C(F)(F)F)cc(C)nc23)cc1OC
0.9%	COc1ccccc1CCNC(=O)C1CCN(c2nc3ccccc3nc2C(F)(F)F)CC1
2.3%	CCOC(=O)CCc1c(C)nc2c(-c3ccccc3)c(C)[nH]n2c1=O
0.8%	CCOc1ccccc1CNS(=O)(=O)c1cc(-c2onc(C)c2C)ccc1OC
1.3%	Cc1cccc(-c2nc(CCNC(=O)c3ccccc3Br)cs2)c1
1.4%	CCOC(=O)c1ccc(N2C(=O)c3n[nH]c(-c4ccco4)c3C2c2cccc(F)c2)cc1 (stereo unspecified)
1.5%	CCOc1ccc(C(=O)c2cn(CC(=O)Nc3cccc(OC)c3)c3cc4c(cc3c2=O)OCCO4)cc1
4.2%	Cc1cc(Nc2ccc(F)cc2)n2c(nc3ccccc32)c1C#N
-0.2%	COc1ccc(C)cc1NC(=O)c1cc(S(=O)(=O)N2CCc3ccccc3C2)ccc1F
2.4%	CC(CNC(=O)c1cc2ccccn2n1)c1ccccc1 (stereo unspecified)

# Continued.
PINK1 expr mod	SMILES
-0.2%	Cc1[nH]c2c(F)cccc2c1CC(=O)NCCN1Cc2ccccc2OC(C)C1 (stereo unspecified)
1.7%	Cc1ccc(NC(=O)N2CCN(c3nnc(C)c4c(C)n(-c5ccccc5)nc34)CC2)c(Cl)c1
1.6%	c1ccc2c(N3CCCCCC3)nc(CN3CCCCC3c3nccs3)nc2c1 (stereo unspecified)
-0.9%	CC(C)CCNC(=O)CSc1nc2ccccc2nc1Cc1ccc(Cl)cc1
0.4%	Nc1cc(=O)[nH]c(=S)[nH]1
-0.6%	CN(C)c1ccc(CNC(=O)CN2C(=O)C3CCCCN3c3ccc(C(=O)N4CCCC4)cc32)cc1 (stereo unspecified)
3.1%	CCN(CC)C(=O)Cn1c(=O)n(Cc2ccc(C(=O)NCc3ccc(C)cc3)cc2)c(=O)c2ccccc21
2.0%	Cc1ccc(Cl)cc1N1CCN(C(=O)c2ccc3c(c2)N(Cc2ccccc2F)C(=O)c2ccccc2S3(=O)=O)CC1
1.1%	COc1cccc(-c2cc(C(=O)Nc3ccc(F)cc3)[nH]n2)c1
1.0%	COc1ccc(CNC(=O)C2(c3cccs3)CCOCC2)cc1
1.1%	CC(=O)c1nn(-c2ccc(OC(F)(F)F)cc2)nc1Nc1ccc(Cl)cc1
-0.9%	CCOC(=O)c1c(C)[nH]c(C)c1S(=O)(=O)N1CCC(C(=O)NCc2ccc(C)cc2)CC1
1.0%	COc1ccccc1CNC(=O)CSc1nc(-c2ccc(OC)c(OC)c2)cc(C(F)(F)F)n1
1.0%	CC1CCc2c(sc3nnn(CC(=O)Nc4c(C(C)C)cccc4C(C)C)c(=O)c23)C1 (stereo unspecified)
11.9%	Cc1ccc(C(=O)c2cn(CC(=O)Nc3ccc4c(c3)OCCO4)c3nc(C)ccc3c2=O)cc1
0.3%	O=C(NCC1Cc2cccc(-c3cnccn3)c2O1)c1ccc2c(c1)OCCO2 (stereo unspecified)
-0.7%	CC(=O)c1ccc(NC(=O)CCn2cccn2)cc1
1.7%	CCOc1ccc(CCNC(=O)c2ccc(-n3c(C)cc4c3CCCC4)cc2)cc1OCC
2.0%	COC(=O)c1sc(N2C(=O)c3oc4ccc(F)cc4c(=O)c3C2c2ccc(C)cc2)nc1C (stereo unspecified)
-0.7%	CCn1nnc2c(N3CCCC3)ncnc21

# The last 4 compounds of the section above open the next one:
PINK1 expr mod	SMILES
-0.7%	CC(=O)c1ccc(NC(=O)CCn2cccn2)cc1
1.7%	CCOc1ccc(CCNC(=O)c2ccc(-n3c(C)cc4c3CCCC4)cc2)cc1OCC
2.0%	COC(=O)c1sc(N2C(=O)c3oc4ccc(F)cc4c(=O)c3C2c2ccc(C)cc2)nc1C (stereo unspecified)
-0.7%	CCn1nnc2c(N3CCCC3)ncnc21
-0.3%	O=C(NCC(c1ccc2c(c1)OCO2)N1CCOCC1)c1ccccc1F (stereo unspecified)
1.5%	CCN(CC)c1ccc(C(=O)NCc2ccc3c(c2)CCN3C(=O)c2cccc(C)c2)cc1
2.7%	CCN1C(=O)c2ccccc2Sc2ccc(NC(=O)c3cccc(C)c3)cc21
6.1%	Cn1nnc2c(N3CCN(c4ccccc4)CC3)ncnc21
0.6%	CCOc1ccc(NC(=O)c2cccc3c(=O)c4c([nH]c23)CCCC4)cc1
1.0%	Cc1ccc2c(c1)N(CCCC(=O)NCc1cccc(F)c1)C(=O)CO2
0.7%	Cc1ccc(C(=O)c2oc3ccccc3c2NC(=O)c2cc(=O)c3cc(C)ccc3o2)cc1
-0.7%	CCOc1ccccc1CNS(=O)(=O)c1ccc2c(c1)CCCN2C(C)=O
-0.4%	CCOc1ccc(NC(=O)CSc2cn(CC(=O)N3CCOCC3)c3ccccc23)cc1

# Single entries from above.
# Reading of `Cc1ccc2c(c1)N(CCCC(=O)NCc1cccc(F)c1)C(=O)CO2` in PINK1 expr mod: 1.0%
# Reading of `Cc1ccc(C(=O)c2oc3ccccc3c2NC(=O)c2cc(=O)c3cc(C)ccc3o2)cc1` in PINK1 expr mod: 0.7%
# Reading of `CCOc1ccc(NC(=O)CSc2cn(CC(=O)N3CCOCC3)c3ccccc23)cc1` in PINK1 expr mod: -0.4%
# Reading of `Cn1nnc2c(N3CCN(c4ccccc4)CC3)ncnc21` in PINK1 expr mod: 6.1%
# Reading of `O=C(NCC(c1ccc2c(c1)OCO2)N1CCOCC1)c1ccccc1F` (stereo unspecified) in PINK1 expr mod: -0.3%
# Reading of `CCN1C(=O)c2ccccc2Sc2ccc(NC(=O)c3cccc(C)c3)cc21` in PINK1 expr mod: 2.7%
# Reading of `CCN(CC)c1ccc(C(=O)NCc2ccc3c(c2)CCN3C(=O)c2cccc(C)c2)cc1` in PINK1 expr mod: 1.5%

# Bioassay records from PubChem BioAssay.

# An excerpt; rates above refer to the full screens.
